FGF22 binding – binders of human FGF22 protein, primary screen, FGF22 synaptogenesis inhibitor project, biophysical, thermal shift, single point; AID 651658, 2012; 340,000 compounds, 1.5% hits; recombinant FGF22 thermal shift, SYPRO orange fluorescence; percent of sucrose octasulfate shift, DMSO zero; calls only at 9.99 µM; Fibroblast growth factor 22 (Homo sapiens), Q9HCT0;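 active = melting point raised past a set limit in the mean and every replicate; three in four hits are not shown here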
Target sequence (Q9HCT0 whole entry, looked up): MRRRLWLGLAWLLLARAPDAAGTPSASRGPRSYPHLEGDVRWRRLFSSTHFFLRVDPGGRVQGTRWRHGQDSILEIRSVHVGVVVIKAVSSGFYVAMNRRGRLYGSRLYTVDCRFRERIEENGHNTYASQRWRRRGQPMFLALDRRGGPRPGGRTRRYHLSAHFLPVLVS
Calls only; i = inactive; + = active, no number. This is a subset; count on the stated rates, not on these rows.

SMILES	FGF22 binding
Cc1ccc(S(=O)(=O)N(C)C[C@@H]2Oc3c(NC(=O)Nc4ccccc4)cccc3C(=O)N([C@H](C)CO)C[C@H]2C)cc1	i
C[C@@H]1CN([C@@H](C)CO)C(=O)c2cc(/C=C/c3ccccc3)cnc2O[C@H]1CN(C)C(=O)C1CCOCC1	i
C[C@H]1CN([C@@H](C)CO)C(=O)Cc2cc(NC(=O)CCCN(C)C)ccc2O[C@@H]1CN(C)Cc1ccc(-c2ccccc2)cc1	i
CN(C)CC(=O)N1[C@H](C#N)[C@H](c2ccccc2-c2cccc(C(=O)N(C)C)c2)[C@H]1CO	i
C[C@@H]1CN([C@@H](C)CO)C(=O)c2cc(-c3ccc(F)cc3)cnc2O[C@@H]1CN(C)C(=O)NC1CCCC1	i
CC(C)NC(=O)N(C)C[C@H]1Oc2ncc(C#Cc3ccc(F)cc3)cc2C(=O)N([C@@H](C)CO)C[C@H]1C	i
Cc1ccccc1S(=O)(=O)N1C[C@H](O)COC[C@@H]2O[C@@H](CC(=O)O)CC[C@H]21	i
CN(C[C@@H]1[C@H](c2ccccc2)[C@@H](CO)N1C(=O)C1CCC1)C(=O)c1ccccn1	i
C[C@@H]1CCCCO[C@@H](CN(C)C(=O)Nc2cccc3ccccc23)[C@H](C)CN([C@@H](C)CO)C(=O)c2cc(NC(=O)c3ccncc3)ccc2O1	i
CC(C)NC(=O)N(C)C[C@@H]1Oc2cc(C#CC(C)(C)O)ccc2S(=O)(=O)N([C@H](C)CO)C[C@H]1C	i
COc1ccc(NC(=O)N(C)C[C@H]2OCCCC[C@H](C)Oc3ccc(NC(=O)CCC(F)(F)F)cc3C(=O)N([C@@H](C)CO)C[C@H]2C)cc1	i
CN(C)C(=O)c1cccc(-c2ccc3c(c2)[C@@H]2[C@@H](CCN2C(=O)c2ccccc2)[C@H](CO)N3C)c1	i

Grouped by structure, the entries above containing fluorine (3)
SMILES	FGF22 binding
C[C@@H]1CN([C@@H](C)CO)C(=O)c2cc(-c3ccc(F)cc3)cnc2O[C@@H]1CN(C)C(=O)NC1CCCC1	i
CC(C)NC(=O)N(C)C[C@H]1Oc2ncc(C#Cc3ccc(F)cc3)cc2C(=O)N([C@@H](C)CO)C[C@H]1C	i
COc1ccc(NC(=O)N(C)C[C@H]2OCCCC[C@H](C)Oc3ccc(NC(=O)CCC(F)(F)F)cc3C(=O)N([C@@H](C)CO)C[C@H]2C)cc1	i

Following part.
SMILES	FGF22 binding
COc1ccc(S(=O)(=O)Nc2ccc3c(c2)C(=O)N([C@H](C)CO)C[C@H](C)[C@H](CN(C)C(=O)Nc2ccccc2)O3)cc1	i
Cc1ccc(S(=O)(=O)N[C@H]2CC[C@H](CCNC(=O)Nc3ccc(Cl)cc3)O[C@@H]2CO)cc1	i
CNC[C@@H]1Oc2ncc(-c3cccc(C(=O)N(C)C)c3)cc2C(=O)N([C@H](C)CO)C[C@@H]1C	i
C[C@H]1CN([C@@H](C)CO)C(=O)c2cccc(NS(=O)(=O)c3cccs3)c2O[C@H]1CN(C)Cc1ccc(C(=O)O)cc1	i
C[C@@H](NC(=O)C[C@@H]1CC[C@@H]2[C@H](COC[C@H](O)CN2C(=O)Nc2cccc(Cl)c2)O1)c1ccccc1	i
C[C@@H]1CN([C@H](C)CO)C(=O)c2cc(NC(=O)Cc3cn(C)c4ccccc34)ccc2O[C@@H]1CN(C)Cc1ccc(C(=O)Nc2ccccc2N)cc1	i
CCS(=O)(=O)N1CCCCN2[C@H](C1)[C@H](c1ccc(-c3ccccc3F)cc1)[C@@H]2CO	i
CCOC(=O)C1=CCN(S(=O)(=O)c2ccc(Cl)cc2)C1c1ccc(Br)cc1 (stereo not drawn)	i
CCCNC(=O)[C@H]1[C@H](CO)[C@H]2Cn3c(ccc(C4=CCCC4)c3=O)[C@@H]1N2C(=O)CC1CC1	i
C[C@@H]1CN([C@@H](C)CO)C(=O)Cc2cc(NC(=O)Nc3ccccc3)ccc2O[C@H]1CN(C)Cc1ccc(C(=O)O)cc1	i
COc1ccccc1S(=O)(=O)N1C[C@H](O)COC[C@H]2O[C@@H](CC(=O)O)CC[C@@H]21	i
C[C@@H]1CCCCO[C@@H](CN(C)C(=O)Nc2ccc(F)cc2)[C@@H](C)CN([C@H](C)CO)C(=O)c2cc(NC(=O)Nc3cccc4ccccc34)ccc2O1	i

6 consecutive entries from above, quoted:
SMILES	FGF22 binding
C[C@H]1CN([C@@H](C)CO)C(=O)c2cccc(NS(=O)(=O)c3cccs3)c2O[C@H]1CN(C)Cc1ccc(C(=O)O)cc1	i
C[C@@H](NC(=O)C[C@@H]1CC[C@@H]2[C@H](COC[C@H](O)CN2C(=O)Nc2cccc(Cl)c2)O1)c1ccccc1	i
C[C@@H]1CN([C@H](C)CO)C(=O)c2cc(NC(=O)Cc3cn(C)c4ccccc34)ccc2O[C@@H]1CN(C)Cc1ccc(C(=O)Nc2ccccc2N)cc1	i
CCS(=O)(=O)N1CCCCN2[C@H](C1)[C@H](c1ccc(-c3ccccc3F)cc1)[C@@H]2CO	i
CCOC(=O)C1=CCN(S(=O)(=O)c2ccc(Cl)cc2)C1c1ccc(Br)cc1 (stereo not drawn)	i
CCCNC(=O)[C@H]1[C@H](CO)[C@H]2Cn3c(ccc(C4=CCCC4)c3=O)[C@@H]1N2C(=O)CC1CC1	i

Other records follow:
SMILES	FGF22 binding
COc1cccc(-c2cnc3c(c2)C(=O)N([C@@H](C)CO)C[C@@H](C)[C@H](CN(C)C(C)=O)O3)c1	i
CC(C)CC#Cc1cnc2c(c1)C(=O)N([C@H](C)CO)C[C@H](C)[C@@H](CN(C)C(=O)Nc1ccccc1F)O2	i
C[C@@H]1CN([C@H](C)CO)C(=O)CCCn2nncc2CO[C@H]1CN(C)C(=O)Nc1ccccc1	i
C[C@H](CO)N1C[C@H](C)[C@H](CN(C)S(=O)(=O)c2cccs2)Oc2ccc(NC(=O)CCC(F)(F)F)cc2CC1=O	i
CC(C)NC(=O)Nc1ccc2c(c1)C(=O)N([C@H](C)CO)C[C@@H](C)[C@@H](CN(C)Cc1ccc(Cl)c(Cl)c1)O2	i
O=C(C[C@@H]1C[C@@H]2c3cc(NC(=O)CC4CC4)ccc3O[C@@H]2[C@H](CO)O1)NCC(F)(F)F	i
O=C(Nc1cccc(Cl)c1)N[C@@H]1CC[C@H](CCNC(=O)C2CCOCC2)O[C@@H]1CO	i
C[C@@H]1CN([C@@H](C)CO)C(=O)c2cc(N(C)C)ccc2O[C@H]1CN(C)Cc1ccc(-c2ccccc2)cc1	i
C[C@@H]1CN([C@H](C)CO)C(=O)CCCn2cc(nn2)CO[C@H]1CN(C)Cc1cccc(C(F)(F)F)c1	i
O=C(Nc1ccc(F)cc1)N1C[C@H]2[C@@H](c3ccccc31)[C@H](CO)N2C(=O)Cc1ccncc1	i
COc1ccc(NC(=O)N(C)C[C@@H]2Oc3ccc(NS(=O)(=O)c4ccc(OC)cc4)cc3CC(=O)N([C@H](C)CO)C[C@H]2C)cc1	i
CN(C)C(=O)[C@H]1[C@H](CO)[C@H]2Cn3c(ccc(-c4ccccc4)c3=O)[C@@H]1N2C(=O)C1CCC1	i
C[C@@H]1CN([C@H](C)CO)S(=O)(=O)c2ccc(C3=CCCC3)cc2O[C@H]1CN(C)Cc1cncnc1	i
C[C@@H]1CN([C@@H](C)CO)C(=O)c2cc(-c3cccc(C#N)c3)cnc2O[C@@H]1CN(C)C(=O)C1CCCCC1	i
C[C@@H]1CN([C@H](C)CO)C(=O)c2cc(NC(=O)CCC(F)(F)F)ccc2O[C@@H](C)CCCCO[C@@H]1CN(C)C(=O)c1ccncc1	i
COCC#Cc1ccc([C@@H]2[C@@H](CO)N3CCCCN(Cc4cncnc4)C[C@H]23)cc1	i
Cc1noc(C)c1S(=O)(=O)Nc1ccc2c(c1)C(=O)N([C@H](C)CO)C[C@H](C)[C@H](CN(C)C(=O)Nc1ccccc1)O2	i
CN(C)CCCNC(=O)[C@H]1[C@H](CO)[C@H]2Cn3c(ccc(C4=CCCCC4)c3=O)[C@@H]1N2Cc1cocn1	i
C[C@H](CO)N1C[C@H](C)[C@H](CN(C)S(C)(=O)=O)Oc2ccc(NS(=O)(=O)c3ccc(F)cc3)cc2CC1=O	i
C[C@H](NC(=O)C[C@H]1CC[C@H](NS(=O)(=O)c2cccc(F)c2)[C@@H](CO)O1)c1ccccc1	i
O=C(c1cnccn1)N1CC(=O)N2[C@H](CO)[C@@H](c3ccc(-c4cccc(F)c4)cc3)[C@H]2C1	i
CCC(=O)Nc1ccc2c(c1)C(=O)N(C)[C@@H]1CC[C@H](CC(=O)N[C@H](C)c3ccccc3)O[C@@H]1CO2	i
C/C=C/c1cnc2c(c1)C(=O)N([C@@H](C)CO)C[C@H](C)[C@@H](CN(C)Cc1ccc3c(c1)OCO3)O2	i
CO[C@@H]1CN(C)C(=O)c2cc(NS(=O)(=O)c3cccc(F)c3)ccc2OC[C@@H](C)N(Cc2cc(F)ccc2F)C[C@@H]1C	i
C[C@@H]1CN([C@H](C)CO)C(=O)c2cc(NS(=O)(=O)c3ccccc3)ccc2O[C@@H]1CN(C)S(C)(=O)=O	i
Cc1ccc(S(=O)(=O)N[C@@H]2CC[C@H](CCNC(=O)C3CC3)O[C@@H]2CO)cc1	i
O=C(C1CCOCC1)N1[C@@H](CO)[C@@H]2c3ccccc3NC[C@@H]21	i
C[C@@H]1CN([C@@H](C)CO)C(=O)Cc2cc(NC(=O)C3CC3)ccc2O[C@H]1CN(C)CC1CC1	i
CN(C)C(=O)C[C@@H]1C[C@@H]2c3cc(NC(=O)NC4CCCC4)ccc3O[C@@H]2[C@H](CO)O1	i
CN(C)C(=O)c1ccc(-c2cccc(-c3nc(C(=O)NCc4ccccc4)cc4c3[C@@H](CCO)N([S@](=O)C(C)(C)C)C4)c2)cc1	i
COCC(=O)Nc1ccc2c(c1)OC[C@H](C)N(CC1CC1)C[C@H](C)[C@H](OC)CN(C)C2=O	i
CC(C)NC(=O)N[C@@H]1C=C[C@@H](CC(=O)NC2Cc3ccccc3C2)O[C@@H]1CO	i
O=S(=O)(N[C@@H]1CC[C@H](CCn2cc(-c3ccc(F)cc3)nn2)O[C@@H]1CO)c1ccccc1F	i
C[C@H](CO)N1C[C@H](C)[C@H](CN(C)Cc2ccncc2)Oc2ccc(NS(C)(=O)=O)cc2CC1=O	i
CCCNC(=O)N1CC2(CN(CC3CC3)C2)c2c([nH]c3cc(OC)ccc23)[C@H]1CO	i
O=C(N[C@@H]1CC[C@H](CC(=O)N2CCC(Cc3ccccc3)CC2)O[C@H]1CO)c1cnccn1	i
COc1ccc(NC(=O)Nc2ccc3c(c2)CC(=O)N([C@@H](C)CO)C[C@H](C)[C@H](CN(C)S(=O)(=O)c2ccc(F)cc2)O3)cc1	i
COc1ccc(NC(=O)N(C)C[C@@H]2OCCCC[C@@H](C)Oc3ccc(NC(=O)Nc4ccc5c(c4)OCO5)cc3C(=O)N([C@H](C)CO)C[C@H]2C)cc1	i
COCC(=O)N(C[C@@H]1N[C@@H](CO)[C@@H]1c1ccc(C2=CCCCC2)cc1)C(C)C	i
Cn1cnc(S(=O)(=O)N[C@@H]2CC[C@H](CC(=O)Nc3ccccc3)O[C@@H]2CO)c1	i
O=C(C[C@@H]1CC[C@@H]2[C@H](COC[C@H](O)CN2C(=O)c2ccc(F)cc2)O1)Nc1nccs1	i
CC(C)c1cn(CC[C@H]2CC[C@@H](NS(=O)(=O)c3ccc(Cl)cc3)[C@H](CO)O2)nn1	i
CO[C@@H]1CN(C)C(=O)c2ccc(NC(=O)Cc3ccccc3)cc2OC[C@@H](C)N(CCc2ccccc2)C[C@H]1C	i
COc1ccc(NC(=O)Nc2ccc3c(c2)C(=O)N([C@@H](C)CO)C[C@@H](C)[C@H](CN(C)Cc2ccccc2)OCCCC[C@@H](C)O3)cc1	i
O=C(Nc1ccc2c(c1)OCO2)N[C@@H]1CC[C@@H](CCNC(=O)C2CCC2)O[C@@H]1CO	i
COCC(=O)NC[C@H]1[C@H](c2ccc(C3=CCCC3)cc2)[C@H](CO)N1C(C)=O	i
O=C(C[C@H]1CC[C@@H]2[C@H](COC[C@H](O)CN2Cc2ccccc2)O1)NCc1ccccc1Cl	i
CCCNC(=O)Nc1ccc2c(c1)OC[C@H](C)N(Cc1ccccn1)C[C@@H](C)[C@H](OC)CN(C)C2=O	i
C[C@H]1CCCCO[C@H](CN(C)Cc2ccc(C(=O)O)cc2)[C@@H](C)CN([C@@H](C)CO)C(=O)c2cc(NS(=O)(=O)c3ccc(F)cc3)ccc2O1	i
Cc1ccccc1S(=O)(=O)NCC[C@H]1CC[C@H](NC(=O)C2CCCC2)[C@H](CO)O1	i
C[C@@H]1CCCCO[C@@H](CN(C)C(=O)c2ccccc2)[C@@H](C)CN([C@H](C)CO)C(=O)c2cc(NS(=O)(=O)c3ccc(Cl)cc3)ccc2O1	i
C[C@H](CO)N1C[C@H](C)[C@H](CN(C)S(C)(=O)=O)Oc2c(NC(=O)C3CCOCC3)cccc2C1=O	i
CCS(=O)(=O)Nc1ccc2c(c1)C(=O)N(C)[C@H]1CC[C@@H](CC(=O)N3CCOCC3)O[C@H]1CO2	i
CCN(C[C@H]1N[C@H](CO)[C@@H]1c1ccccc1)C(=O)c1ccncc1	i
O=C(Nc1cccc(F)c1)N1CC(=O)N2[C@@H](CO)[C@@H](c3ccc(Br)cc3)[C@@H]2C1	+
C[C@H](CO)N1C[C@H](C)[C@H](CN(C)Cc2cccnc2)Oc2cc(C#CCN(C)C)ccc2S1(=O)=O	i
C[C@H]1CCCCO[C@@H](CN(C)Cc2ccc(C(=O)O)cc2)[C@@H](C)CN([C@@H](C)CO)C(=O)c2cc(NC(=O)CCCN(C)C)ccc2O1	i
C[C@@H]1CN([C@@H](C)CO)C(=O)c2c(c3ccccc3n2C)-c2ccccc2CO[C@@H]1CN(C)S(=O)(=O)c1cccc(F)c1	i
Cc1noc(C)c1NC(=O)Nc1cccc2c1O[C@H](CN(C)S(=O)(=O)c1ccc(F)cc1)[C@@H](C)CN([C@@H](C)CO)C2=O	i
O=C(C[C@H]1CC[C@@H]2[C@H](COC[C@H](O)CN2C(=O)c2ccccn2)O1)N1CCN(c2ccccc2)CC1	i
O=C(NC1CCCC1)[C@@H]1[C@@H](CO)[C@@H]2Cn3c(cccc3=O)[C@H]1N2CC1CCCC1	i
C[C@H](CO)N1C[C@H](C)[C@@H](CN(C)C(=O)C2CCC2)Oc2ncc(-c3ccc(F)cc3)cc2C1=O	i

High-throughput results deposited in PubChem by Broad Institute.
